# AF4-AF9 inh: inhibitors of AF4 peptide binding to AF9, primary screen, biochemical, AlphaScreen, biotin-AF4 peptide, FLAG-AF9, single point. inhibition, % at 10 µM. actives 0.47% (n = 350,000). Protein AF-9 (Homo sapiens), P42568;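 active means every replicate reaching a set inhibition limit, whatever the replicate mean, cut at about 25% in these data; inconclusive means mean inhibition reaches that limit but some replicates miss it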;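 further: 0% = plate neutral control median and 100% = total signal loss; the record names both 10 and 1 µM as test concentration; the first replicate is given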
# HNF4A DNA FP: change in binding of human HNF4A to DNA, primary screen, biochemical, fluorescence polarization, FITC-DNA. Hepatocyte nuclear factor 4-alpha (Homo sapiens), P41235. 1 h. activity change, % at 10 µM. actives 0.3% (n = 360,000); in the data active means activity change above about 30%, passing the limit was not always enough;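 further: controls were the assay level and a saturating level of protein; the project sought stronger binding though the title names inhibitors; some compounds called inactive have numbers as strong as hits; positive values seem to mean higher polarization but the record does not say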
# Target sequence (P41235 whole entry, looked up): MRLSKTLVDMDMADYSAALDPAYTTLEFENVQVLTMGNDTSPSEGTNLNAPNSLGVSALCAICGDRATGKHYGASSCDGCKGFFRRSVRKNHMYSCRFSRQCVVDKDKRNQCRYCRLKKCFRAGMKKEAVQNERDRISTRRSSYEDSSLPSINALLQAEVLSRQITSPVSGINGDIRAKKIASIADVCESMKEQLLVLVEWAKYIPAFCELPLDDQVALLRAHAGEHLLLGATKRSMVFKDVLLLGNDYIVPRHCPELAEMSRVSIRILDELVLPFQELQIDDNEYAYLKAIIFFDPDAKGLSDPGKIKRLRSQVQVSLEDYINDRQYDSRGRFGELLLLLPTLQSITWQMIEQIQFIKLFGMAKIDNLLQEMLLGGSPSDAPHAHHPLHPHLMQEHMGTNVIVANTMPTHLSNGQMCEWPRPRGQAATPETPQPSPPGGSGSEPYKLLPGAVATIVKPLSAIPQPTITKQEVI
# Ecoli growth: E. coli growth inhibition, primary screen, OD600; Escherichia coli growth, 23 h; stronger effect = lower value; OD600 absorbance (no concentration beside the values); AID 1053175, 2014; actives 0.21% (n = 330,000);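 active means OD600 absorbance below the run mean of sample wells minus 3.6 SD, in any replicate, cut at about 0.56 in these data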;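 further: stock transfer was 300 nL into about 60 µL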
# UCH37 inh: inhibitors of human UCH37 deubiquitinase, primary screen, biochemical, Ub-AMC cleavage, fluorescence; inhibition, % (concentration not given with the values); actives 0.33% (n = 330,000); purified proteasome/UCH37;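 active means mean of two replicates above 20%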;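 further: 0% = compound-free wells with enzyme and 100% = wells lacking proteasome; stock transfer was 100 nL into about 20 µL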
# Target sequence (Q9Y5K5 whole entry, looked up): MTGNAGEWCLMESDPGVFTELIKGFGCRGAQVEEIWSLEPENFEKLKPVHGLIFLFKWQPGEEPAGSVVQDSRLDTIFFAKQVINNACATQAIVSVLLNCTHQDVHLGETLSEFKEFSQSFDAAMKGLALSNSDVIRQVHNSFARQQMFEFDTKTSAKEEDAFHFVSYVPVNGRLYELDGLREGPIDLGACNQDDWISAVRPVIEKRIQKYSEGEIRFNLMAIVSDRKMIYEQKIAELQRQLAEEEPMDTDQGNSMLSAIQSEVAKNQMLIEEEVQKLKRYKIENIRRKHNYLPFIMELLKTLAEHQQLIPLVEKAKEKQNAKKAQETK
#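 assay system = human UCH37 enzyme supplied as purified proteasome complex | amount = proteasome at 0.15 nM in the dispensed enzyme solution | schedule = 30 min compound-proteasome preincubation then 25 min substrate reaction, room temperature | measured by = fluorescence, ex 355 nm, em 460 nm | benchmarks = no-proteasome wells (full inhibition) and compound-free wells (no inhibition)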
# FGF22 binding: binders of human FGF22 protein, primary screen, FGF22 synaptogenesis inhibitor project, biophysical, thermal shift, single point | calls only at 9.99 µM | actives 1.5% (n = 340,000) | Fibroblast growth factor 22 (Homo sapiens), Q9HCT0 | AID 651658, 2012 | recombinant FGF22 thermal shift, SYPRO orange fluorescence; percent of sucrose octasulfate shift, DMSO zero;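 active means melting point raised past a set limit in the mean and every replicate; inconclusive means no clear call; three in four hits are not shown here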
# Target sequence (Q9HCT0 whole entry, looked up): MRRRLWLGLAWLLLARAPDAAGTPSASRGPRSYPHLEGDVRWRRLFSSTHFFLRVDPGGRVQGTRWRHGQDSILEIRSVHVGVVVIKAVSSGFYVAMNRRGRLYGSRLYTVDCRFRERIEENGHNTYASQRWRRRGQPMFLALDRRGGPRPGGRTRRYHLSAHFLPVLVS
# Vif A3G: inhibitors of Vif binding to APOBEC3G peptide, primary screen, biochemical, TR-FRET, GST-Vif 1-94, biotin-A3G peptide, dose response retest (AID 1117319); Virion infectivity factor (Human immunodeficiency virus type 1 group M subtype B (isolate …; TR-FRET GST-Vif / biotin-A3G peptide binding; higher % means a stronger effect; test concentration not given here; strong numbers were not always called active; inhibition, %, or IC50 in µM where a hit was titrated; actives 0.57% (n = 260,000);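 active means above the screen mean plus three standard deviations and confirmed in dose response; inconclusive means results disagree or hit not tested in dose response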;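 further: Vif residues 1-94 fused to GST binding biotinylated APOBEC3G peptide 110-148; 0% = full assay without inhibitor and 100% = GST in place of GST-Vif; retest series ran down from 100 µM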
# RanGTP-Impb inh: inhibitors of RanGTP-importin-beta interaction, primary screen, biochemical, FRET, CFP-Ran, YFP-importin-beta, homogeneous; cell-free CFP-Ran/YFP-importin-beta FRET ratio; inhibition, % (no concentration beside the values); actives 1.1% (n = 300,000); AID 2216, 2009;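 active means most replicates above 15%; inconclusive means exactly half above 15%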;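 further: 0% = DMSO wells and 100% = Ran loaded with GDP instead of GTP; wells of about 40 µL received 100 nL stock; the first replicate is given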
# The depositor's hits bear a star; i = inactive; ? = inconclusive; nt = not tested or not shown; & = joins results of further samples. Only part of the results is shown, so the mix of outcomes need not match the whole.
SMILES,AF4-AF9 inh,HNF4A DNA FP,Ecoli growth,UCH37 inh,FGF22 binding,Vif A3G,RanGTP-Impb inh
Cc1ccc2nc(-c3ccc(N4C(=O)CC(N5CCC(C(N)=O)CC5)C4=O)cc3)sc2c1 (stereo unspecified),nt,nt,0.67,-7.0,nt,nt,2.5
COc1ccc(S(=O)(=O)N(C)C[C@@H]2Oc3ccc(NC(=O)Nc4c(C)noc4C)cc3C(=O)N([C@H](C)CO)C[C@@H]2C)cc1,-2.0&0.2,4.7,nt,1.9,i,nt,nt
Cc1c(C(=O)Nc2ccccc2)sc2nc[nH]c(=O)c12,nt,3.4,0.69,1.9,nt,nt,2.8
O=C(O)CCNC(=O)c1ccc(NC(=O)C(c2ccccc2)c2ccccc2)cc1,2.8,-1.0,0.68,1.8,i,-6%,1.1
O=C(NCCc1ccccc1)c1ccc(-c2ccc(F)c(F)c2)c2ccoc12,0.0,-1.7,nt,nt,i,nt,nt
Cc1c(C(=O)NCc2ccc3c(c2)OCCO3)sc(=O)n1Cc1ccc2c(c1)OCO2,2.8,2.7,nt,nt,i,nt,nt
COc1ccc(CCNC(=O)COc2ccc(N(C)S(=O)(=O)c3ccc(C)cc3)cc2)cc1,0.1,3.2,0.68,0.4,i,2%,0.8
CCOC(=O)c1ccc(NC(=O)Nc2cccc(C)n2)cc1,0.3,2.6,0.71,-1.0,i,nt,?
CC(Sc1nc2ccccc2o1)C(=O)O (stereo unspecified),nt,1.6,0.71,5.0,nt,-1%,-0.6
CC(C)(C)[C@H]1COC(=O)CCC/C=C/C[C@H](CC(=O)N(CCO)Cc2ccccc2)C(=O)N1,-0.4,-9.8,nt,1.8,i,nt,nt
COC1CCCN(Cc2cn(C)nc2-c2ccc(Oc3ccccc3)cc2)C1 (stereo unspecified),2.8,1.6,0.68,3.8,i,nt,-0.2
CCSc1nnc(-c2sc3nnc(-c4ccccc4)c(-c4ccccc4)c3c2N)o1,nt,31,0.83,-3.8,nt,3%,-199
O=C1C(=Cc2cn(-c3ccccc3)nc2-c2ccc(OCc3ccc(Cl)cc3)cc2)SC(=S)N1CCS(=O)(=O)O,7.1,-59,nt,nt,nt,nt,nt
O=C(Cc1ccc2c(c1)OCCO2)Nc1cccc(S(=O)(=O)N2CCOCC2)c1,-2.7,-2.9,0.66,0.7,i,nt,nt
CCOc1ccc(OCCC(=O)OCC(=O)NC2CCCCC2)cc1,0.2,-1.3,0.69,3.1,i,nt,2.0
COCC(C)n1c(SCC(=O)c2cc(C)n(C)c2C)nc2ccccc2c1=O (stereo unspecified),14,1.4,0.72,5.7,i,0%,-2.1
Cc1nnc(SCc2ccc(C(=O)Nc3cc(Cl)ccc3C)cc2)s1,nt,0.9,0.67,2.2,nt,-3%,2.1
CCOc1cc(C(=O)Nc2ccc(S(=O)(=O)Nc3cc(C)on3)cc2)cc(OCC)c1OCC,nt,0.5,0.64,2.1,nt,0%,-0.9
COc1ccc(-n2c(C)c(C)c3c(NCCN(C)C)ncnc32)cc1,16,1.3,0.59,1.9,i,7%,3.5
CCCC(=O)Nc1ccc2c(c1)nc(CCNC(=O)c1ccco1)n2C,-4.9,1.1,0.69,0.9,i,-9%,3.8
C1CC(CN2CCOCC2)CN(Cc2nc(CC3CC3)no2)C1 (stereo unspecified),-5.1,2.3,0.69,3.9,i,3%,5.5
Cc1nc(C2CCCCC2)c(-c2ccccc2)c(N2CCOC2=O)c1C,-2.0,2.4,0.61,-0.2,i,nt,2.2
CCOC(=O)C(C#N)C(Cc1ccccc1)c1ccco1 (stereo unspecified),nt,0.1,0.75,1.6,nt,-4%,0.8
Cc1ccc(Sc2ccc(NC(=O)CCl)cc2)cc1C,nt,1.8,0.7,3.5,nt,nt,2.8
N=c1sccn1CC(=O)N1N=C(c2ccc(Cl)cc2)CC1c1ccco1 (stereo unspecified),12,2.8,0.68,3.1,i,nt,-0.8
# The listing continues:
SMILES,AF4-AF9 inh,HNF4A DNA FP,Ecoli growth,UCH37 inh,FGF22 binding,Vif A3G,RanGTP-Impb inh
Cc1ccc(S(=O)(=O)N(CC(=O)Nc2cccnc2)c2ccc(Br)cc2)cc1,3.2,-2.7,0.67,4.1,i,nt,1.4
CCOC(=O)Cn1c(=O)oc2cc(S(=O)(=O)N3CCN(c4ccccn4)CC3)ccc21,-7.3,4.2,0.73,5.9,i,9%,-1.3
COc1ccc(CCC(=O)N2CCN(c3ccc([N+](=O)[O-])cc3)CC2)cc1OC,0.5,1.0,0.68,6.4,i,-4%,-4.2
O=C(NCCNC(=O)c1cc(OCC(F)(F)F)ccc1OCC(F)(F)F)Nc1ccc(OC(F)(F)F)cc1,nt,-2.1,0.75,1.8,nt,-4%,-0.2
CCOc1cc(CN2CCc3c([nH]c4ccccc34)C2)ccc1OC,12,5.2,0.65,-1.1,i,-5%,-1.0
COc1nc2ccccc2nc1N1CCN(Cc2ccc3c(c2)OCO3)CC1,3.1,-1.9,0.66,-6.2,i,-9%,-2.3
C=C(C)CSc1nc2sc3c(c2c(=O)n1-c1ccccc1)CCN(C)C3,6.8,7.3,0.62,-39,i,5%,8.4
Cc1nc(-n2nnc(CO)c2CO)nc2c1CCC2,0.4,0.5,0.69,1.8,i,8%,5.4
CN1CCN(C(=O)C2(NC(=O)Nc3ccccc3Cl)CCCCC2)CC1,nt,1.3,0.74,0.0,nt,-5%,-0.1
COC(=O)c1[nH]c2ccccc2c1NC(=O)CN1CCN(c2cccc(Cl)c2)CC1,nt,0.8,0.69,-8.9,nt,2%,2.5
O=C(NNC(=S)Nc1cccc(C(F)(F)F)c1)c1ccc(Cl)cc1Cl,nt,-1.3,0.67,3.2,nt,8%,-0.2
O=C(NC1CCCC1)C(c1ccncc1)N(Cc1ccco1)C(=O)c1ccc(-c2ccccc2)[nH]1 (stereo unspecified),5.0,4.3,0.63,2.0,i,18%,3.7
CCNC(=O)c1ccccc1SCc1ccccc1,-2.7,5.3,0.7,5.0,i,-7%,-1.3
COc1ccc(CNC(=O)c2ccc(Br)o2)cc1,1.7,2.3,0.73,1.5,i,-3%,1.0
COc1ccccc1N(CC(=O)NCC1CCCO1)C(=O)CCC(=O)Nc1nccs1 (stereo unspecified),nt,-0.8,0.73,5.0,nt,13%,-4.1
CC1(C)N=C(N)N=C(N)N1c1ccc(OCC(=O)Nc2ccccc2)c(Cl)c1,-0.2,1.3,nt,nt,i,0%,nt
CCOC(=O)Cn1cc(Cl)c(=O)c(Cl)c1,-1.6,0.9,0.7,5.2,i,0%,1.6
CC(=O)N1CCc2cc(NC(=O)C3(C)CCN3Cc3ccccc3OC(F)F)ccc21 (stereo unspecified),-2.3,2.0,nt,nt,i,nt,nt
O=C(CC1CC2CCC1C2)NCc1cccs1 (stereo unspecified),nt,0.7,0.67,2.0,nt,13%,-2.5
COCCNC(=O)C(=O)Nc1ccc2c(c1)N(S(=O)(=O)c1cccs1)CCC2,0.8,-2.8,0.7,4.3,i,1%,0.2
CC1(C)CC(=O)C(N=Nc2ccc(-c3ccccc3)cc2)=C(O)C1,-0.7,33,0.61,-0.3,i,nt,-6.2
CC1CCCCC1NC(=O)COC(=O)c1c2c(nc3ccccc13)/C(=C\c1ccco1)CC2 (stereo unspecified),1.1,-39,0.69,-26,i,4%,nt
COc1cc2c(cc1OC)C(c1ccccc1Br)NC(=O)C2 (stereo unspecified),-4.6,3.3,0.73,1.5,i,2%,5.1
NC(=S)Nc1ccc2c(c1)OCO2,-2.7,3.3,0.7,1.7,i,17%,-1.7
Cc1ccc(S(=O)(=O)/N=C(\N)Nc2nc(C)c3ccc(C)cc3n2)cc1,nt,-4.2,nt,nt,nt,-10%,0.0

# The last 5 entries of the part before come first, to join the parts.
SMILES,AF4-AF9 inh,HNF4A DNA FP,Ecoli growth,UCH37 inh,FGF22 binding,Vif A3G,RanGTP-Impb inh
CC1(C)CC(=O)C(N=Nc2ccc(-c3ccccc3)cc2)=C(O)C1,-0.7,33,0.61,-0.3,i,nt,-6.2
CC1CCCCC1NC(=O)COC(=O)c1c2c(nc3ccccc13)/C(=C\c1ccco1)CC2 (stereo unspecified),1.1,-39,0.69,-26,i,4%,nt
COc1cc2c(cc1OC)C(c1ccccc1Br)NC(=O)C2 (stereo unspecified),-4.6,3.3,0.73,1.5,i,2%,5.1
NC(=S)Nc1ccc2c(c1)OCO2,-2.7,3.3,0.7,1.7,i,17%,-1.7
Cc1ccc(S(=O)(=O)/N=C(\N)Nc2nc(C)c3ccc(C)cc3n2)cc1,nt,-4.2,nt,nt,nt,-10%,0.0
CCNC(=O)c1ccccc1-c1nc(-c2ccccc2OC)no1,nt,2.1,0.66,3.9,i,3%,-2.3
CC(C)(C)OC(=O)[C@H](Cc1ccccc1)NC(=O)c1[nH]cnc1C(=O)N[C@@H](Cc1ccccc1)C(=O)OCc1ccccc1,2.2,0.9,nt,0.1,i,nt,-0.7
CC(=O)c1cc2c(cc1NC(=O)CN1CCCCC1C)OCO2 (stereo unspecified),-35,0.8,0.58,-20,i,-1%,-2.4
CCOC(=O)C1CCCN(C(=O)c2[nH]c(C(F)(F)F)nc2-c2ccccc2)C1 (stereo unspecified),-0.8,-1.2,nt,nt,i,nt,nt
Cc1ccc2cc(CN(CCCN(C)C)C(=S)NCc3ccccc3)c(=O)[nH]c2c1C,2.2,0.7,0.68,-1.9,i,2%,1.5
Cc1ccc(S(=O)(=O)NCc2cccnc2)cc1C(=O)NC1CCCCC1,2.1,1.5,0.69,3.5,nt,0%,1.0
CCOC(=O)N1CCC(NC(=O)c2cc(-c3ccc(F)cc3)[nH]c2C)CC1,nt,0.5,0.7,-0.9,nt,2%,1.2
Cn1cnnc1SCC(=O)Nc1ccc2nc(SCc3cccc4ccccc34)sc2c1,nt,0.1,0.75,1.4,nt,3%,6.7
O=C1NC(c2ccccc2)(C(F)(F)F)C(=O)N1Cc1cccnc1 (stereo unspecified),nt,3.4,0.77,3.8,nt,?,-2.4
O=C1CC2c3ccccc3C1C1C(=O)N(CCO)C(=O)C21 (stereo unspecified),-0.8,-1.1,0.68,2.7,i,8%,nt
Cc1ccc(F)c(S(=O)(=O)NC(=O)C2(C)CCN2C(=O)CC(c2ccccc2)c2ccccc2)c1 (stereo unspecified),-2.0,-2.4,nt,nt,i,nt,nt
COC(=O)CS(=O)(=O)c1cc(Br)cc2c1N(C(C)=O)CC2,nt,0.2,0.78,4.5,nt,-4%,-2.2
CC12CCC(C(=O)N(CCCN3CCN(Cc4ccccc4)CC3)C1=O)C2(C)C (stereo unspecified),8.3,0.5,0.71,1.8,i,-7%,nt
CCC1(c2ccccc2)NC(=O)N(CC(=O)N(c2ccccc2)C2CCS(=O)(=O)C2)C1=O (stereo unspecified),-0.5,2.5,0.71,0.1,i,-3%,nt
C/C(NC(=O)c1cccc(F)c1)=C1/C(=O)C[C@@H]2[C@H]1C2(C)C,nt,1.9,nt,nt,nt,7%,2.5
COc1ccc(-c2sc3cc4c(cc3c2-c2ccc3c(c2)OCCO3)OCO4)cc1,-2.0,0.5,nt,-8.7,i,nt,nt
Cc1c(C(=O)NCc2cccc([N+](=O)[O-])c2)sc(=O)n1Cc1ccc(C(C)C)cc1,-0.4,2.4,nt,nt,i,nt,nt
